# Assay outcomes as filed in PubChem BioAssay.
# 2A Renilla: FMDV 2A StopGo reporter, Renilla signal. 120,000 tested, 0.32% active. AID 1745857. HEK cells with a luciferase reporter of 2A StopGo recoding. Potency, µM (doses to about 57.5 µM), for inactives: top-dose signal change, negative = less light; active means well fitted falling curve with a large enough effect; inconclusive means small, poorly fitted or top-dose-only effect; inactive means no such curve, though single readings can be large or run the other way; further: nearly all actives have a fitted effect of over 55% in size; overnight with compound
# StopGo FLuc: FMDV 2A StopGo reporter, firefly signal. HEK cells with a luciferase reporter of 2A StopGo recoding. 120,000 tested, 0.23% active. Potency, µM (series often up to 57.5 µM), without a hit: at the highest dose signal change, negative = less light; active = well fitted falling curve with a large enough effect; inconclusive = small, poorly fitted or top-dose-only effect; inactive = no such curve, though single readings can be large or run the other way; further: nearly all actives have a fitted effect of over 60% in size; overnight with compound
# * marks the source's active call; other numbers are inactive results; ? = inconclusive; [ ] = another dose, or the depositor's remark. On the % scale 0 is the no-effect control and ±100 the full control effect; potency means the concentration at half of the fitted maximal effect. These rows are one share of the data; rates above refer to the full screens.
# Sample of the layout, seven compounds:
# Fields: 2A Renilla, StopGo FLuc
> Cc1ccc2nc(C)c(C(=O)N(C)CC(=O)NC(C)(C)C)cc2c1
 : -12%, -10%
> COc1cccc(C(=O)Oc2ccc3ccccc3c2)c1
 : 11%, 18%
> CCC(CC)C(=O)Nc1ccc(OCc2cc(=O)n3c4c(sc3n2)CCCC4)cc1
 : -11%, 0%
> COc1ccc(N2CCN(C(=O)CSc3nc(-c4ccccc4)no3)CC2)cc1
 : 1%, 54%[activator]
> Cc1c(Cl)cccc1N=C1NN=C(c2ccc3c(c2)CC(C)N3S(C)(=O)=O)CS1 (stereo not given)
 : 0%, -11%
> Cc1ccc(N2C(=O)CCS2(=O)=O)cc1S(=O)(=O)NC1CCCC1
 : 101%[activator], 12%
> CCCS(=O)(=O)N1CCC(n2c(C)nc3cccnc32)CC1
 : -14%, -13%

# Results (from the top)
# Fields: 2A Renilla, StopGo FLuc
> Cc1ccc2nc(C)c(C(=O)N(C)CC(=O)NC(C)(C)C)cc2c1
 : -12%, -10%
> COc1cccc(C(=O)Oc2ccc3ccccc3c2)c1
 : 11%, 18%
> CCC(CC)C(=O)Nc1ccc(OCc2cc(=O)n3c4c(sc3n2)CCCC4)cc1
 : -11%, 0%
> COc1ccc(N2CCN(C(=O)CSc3nc(-c4ccccc4)no3)CC2)cc1
 : 1%, 54%[activator]
> Cc1c(Cl)cccc1N=C1NN=C(c2ccc3c(c2)CC(C)N3S(C)(=O)=O)CS1 (stereo not given)
 : 0%, -11%
> Cc1ccc(N2C(=O)CCS2(=O)=O)cc1S(=O)(=O)NC1CCCC1
 : 101%[activator], 12%
> CCCS(=O)(=O)N1CCC(n2c(C)nc3cccnc32)CC1
 : -14%, -13%
> CC(C)Oc1ccc(CN2CCc3nc(Nc4ccc5c(c4)OCCO5)ncc3C2)cc1
 : -25%, 11%
> N#C/C(=C\c1ccc(Br)cc1)c1nc(-c2cc3cc(Br)ccc3oc2=O)cs1
 : -3%, -15%
> Cc1ccc(-c2csc(NC(=O)C34CC5CC(CC(C5)C3)C4)n2)cc1
 : ?, -7%
> O=C(NCCCN1CCN(c2ccc(F)cc2)CC1)c1cc2c(Cl)nc3ccccc3c2s1
 : -4%, -16%
> COc1ccc(NC(=O)CC(C)n2cccn2)cc1Cl (stereo not given)
 : -4%, 7%
> CNc1c(NC(=O)Nc2ccccc2F)c(=O)oc2ccccc12
 : -2%, 57%[activator]
> O=C(CSc1ccc2c(c1)OCCCO2)NCc1ccc2c(c1)OCO2
 : 24%, 11%
> COc1ccc(CC(=O)Nc2c(C(=O)Nc3ccc(F)cc3)oc3ccccc23)cc1OC
 : 7%, 259%[activator]
> CCCOc1ccc(CNC(=O)CN2C(=O)c3cccnc3Oc3ccc(C)cc32)cc1
 : 28%, -17%
> CNS(=O)(=O)c1cn(CC(=O)N2CCN(c3cccc(C)c3C)CC2)cc1S(=O)(=O)NC
 : -12%, -26%
> COc1ccc(C)cc1C(C)NC(=O)c1n[nH]c(=O)c2ccccc12 (stereo not given)
 : -5%, -3%
> CCc1nn2c(=O)cc(COC(=O)CNC(=O)c3ccccc3)nc2s1
 : 0%, 12%
> CC(=O)C1=C(c2ccc(Cl)c(Cl)c2)N(C(C)=O)n2c(C)nnc2S1
 : -9%, 5%
> Cc1ccc(NC(=O)N2CCCCCC2c2cccs2)cc1C (stereo not given)
 : 45%[activator], 62%[activator]
> CC(C)CC(=O)N1CCC(c2nc3ccccc3o2)CC1
 : -1%, 12%
> Cc1nn2c(=O)cc(COC(=O)c3cccc(NC(=O)c4cccs4)c3)nc2s1
 : 14%, ?
> Cc1ccc(C(=O)Nc2nnc(S(=O)(=O)N3CCN(c4ccc(F)cc4)CC3)s2)cc1
 : -8%, 18%
> CCOc1cc(C(=O)O)ccc1OCc1ccccc1
 : 17%, 18%
> O=C(CNC(=O)c1cccs1)Nc1nc(-c2cccc3ccccc23)cs1
 : 29%, 187%[activator]
> Cc1ccc(C(=O)NC2Cc3ccccc3C2)cc1
 : 36%, 141%[activator]
> COc1cccc(Oc2coc3cc(OS(C)(=O)=O)ccc3c2=O)c1
 : ?, -12%
> COc1ccc(NC(=O)CC2C(=O)N(c3ccc(F)cc3)C(=O)N2Cc2ccc3c(c2)OCO3)cc1 (stereo not given)
 : 100%[activator], -23%
> Cc1cc(C)nc(-n2nc(C)c3c2NC(=O)CC3c2cccc(O)c2)n1 (stereo not given)
 : 2%, 3%
> Cc1ccc(Cl)cc1-n1ncc2c(N3CCN(Cc4ccccc4)CC3)ncnc21
 : 35µM*, 22µM*
> Cn1c(=O)c2[nH]c(N3CCN(C(=O)c4ccccc4F)CC3)nc2n(C)c1=O
 : -4%, -3%
> O=C(CSC(c1ccccc1)c1ccc(Cl)cc1)NCc1cccs1 (stereo not given)
 : 0%, -28%
> CCCNc1ncnc2onc(C)c12
 : -5%, 11%
> CCOC(=O)C1CCCN(CC(=O)c2cc(C)n(C3CCS(=O)(=O)C3)c2C)C1 (stereo not given)
 : 12%, 50%[activator]
> COC(=O)c1ccc(CCNC(=O)c2nccnc2N)cc1
 : -6%, 0%
> CC(C)(C)c1ccc2c(c1)OCCOCCOCCOCCO2
 : -24%, -11%
> Cc1cccc2c1ccn2CCC(=O)Nc1nnc(C(C)C)s1
 : -16%, -4%
> O=C(O)CCCCCCCCCCc1ccc(C(=O)O)s1
 : -12%, 0%
> COc1cc(C(=O)Nc2ccc(OCc3cc(=O)n4cccc(C)c4n3)cc2)cc(OC)c1OC
 : 17%, 12%
> CCCCOc1ccc(C(=O)Nc2ccc3c(c2)CCCN3C(=O)c2cccs2)cc1
 : ?, -4%
> Cc1ccccc1C(=O)NCC(=O)OCc1ncc(-c2ccccc2)o1
 : 7%, 45%[activator]
> O=C(COCc1cc(-c2ccco2)on1)Nc1cc(Cl)ccc1O
 : 41%[activator], -6%
> CCN(CC(=O)Nc1c(F)cccc1F)C(=O)c1nn(Cc2ccccc2)c(=O)c2ccccc12
 : 74%[activator], 38%[activator]
> O=C(NCC1CC1)c1ccccc1Nc1ccccc1
 : 51%[activator], 29%
> C[C@]12CCC(=O)C=C1CC[C@@H]1[C@@H]2[C@@H](O)C[C@@]2(C)[C@H]1CC[C@]2(O)C(=O)COC(=O)CCC(=O)O
 : 17%, 3%[11.5 µM]
> CCOC(=O)c1cc2n(n1)CC(C)(C(=O)NCCC(C)C)N(c1cc(Cl)ccc1OC)C2=O (stereo not given)
 : 3%, -7%
> CCN(CC)S(=O)(=O)c1ccc(C)c(N)c1
 : 32%, -4%
> N#CC(C(=O)CCc1ccccc1F)C(=O)Nc1ccccc1Cl (stereo not given)
 : 127%[activator], 0%
> Cc1cccc(C)c1N1CC(c2nc3ccccc3n2CC(=O)OC(C)C)CC1=O (stereo not given)
 : 45%[activator], 24%
> CCc1nc(SC)ncc1C(=O)NCCc1ccc(C)cc1
 : 3%, 0%
> COc1cc(S(N)(=O)=O)cc(C(=O)O)c1OC
 : 2%, -9%[11.5 µM]
> CN(CCOc1ccccc1F)C(=O)c1cc(Cl)c[nH]1
 : 56%[activator], 185%[activator]
> Cn1nc(C(F)(F)F)c(Br)c1C(=O)Nc1sc2c(c1C(N)=O)CCC2
 : -11%, 24%
> O=C(Cc1ccccc1)Nc1ccc(N2CCOCC2)c(Br)c1
 : 13%, 138%[activator]
> Cc1ccc(Cn2c(SCC(=O)O)nc3c2c(=O)[nH]c(=O)n3C)cc1
 : -3%, 1%
> CCOc1ccc(/C=C(\C#N)C(=O)Nc2sc3c(c2C(=O)OC)C(C(=O)OC)CC3)cc1OC (stereo not given)
 : -3%, 7%
> Cc1c(C)c2cc(Cl)c(OCC(=O)NCc3ccccn3)cc2oc1=O
 : 9%, 25%
> Cc1ccccc1-c1nc(C#N)c(NCCN2CCOCC2)o1
 : 23%, 23%
> COc1ccc(-c2nnc(SCCOc3ccccc3C)o2)cc1OC
 : -7%, 4%

# The list continues.
# Fields: 2A Renilla, StopGo FLuc
> Cc1oc(-c2cccc(Br)c2)nc1Cn1c(SCc2cccc(F)c2)nc2cccnc21
 : -2%, -4%
> Cc1ccc(C2=NC(c3ccc(F)cc3)=Nc3ccc(C)cc3N2)cc1
 : 12%, 76%[activator]
> COc1ccc(NC(=O)CSc2oc(-c3ccc(C)cc3)nc2S(=O)(=O)c2ccc(C)cc2)c(OC)c1
 : -19%, -22%
> COc1ccc(NC(=O)COCc2cc(-c3ccc4c(c3)OCO4)on2)cc1
 : 3%, 8%
> Cn1c(=O)[nH]c(=O)c2c1nc(NC1CCCCC1)n2CCCc1ccccc1
 : 34%[activator], -4%
> CC(=O)Nc1ccc(C(=O)N(CCc2ccccc2)Cc2ccccc2)s1
 : 29%, 91%[activator]
> COC(=O)C1CN(Cc2cn(Cc3ccccc3)nn2)CCS(=O)(=O)N1Cc1ccc(Cl)cc1 (stereo not given)
 : 13%, ?
> Cc1ccc(CNC(=O)c2ccc(NC(=O)Cn3c(C)cc(C)c(C#N)c3=O)cc2)o1
 : 0%, 8%
> O=C(NCc1ccc(Cl)cc1)c1ccc(CSCc2cccc(Cl)c2)o1
 : -4%, 2%
> O=C(O)c1cccc2ncccc12
 : 2%, 10%
> Cc1nc(/N=C(\N)NC(=O)c2ccccc2N)nc2ccccc12
 : -3%, 165%[activator]
> CCN(CC)c1ccc(C(=O)N2CCc3c([nH]c4ccccc34)C2c2ccc(F)cc2)cc1 (stereo not given)
 : 2%, 4%
> CCCCc1[nH]nc2c1C1(C(=O)Nc3ccc(F)cc31)C(C#N)=C(N)O2 (stereo not given)
 : -5%, -5%
> CCCOc1ccc(/C=C(/C#N)c2nc3ccccc3[nH]2)cc1Br
 : 155%[activator], 39%[activator]
> CCC(=O)Nc1ccc(Br)cc1-c1nnc(SC)[nH]c1=O
 : -10%, -5%
> COC(=O)c1nc(NC(=O)c2cccc(Br)c2)n[nH]1
 : -2%, -11%
> CC(=O)c1cc(CNC(=O)CCl)cs1
 : ?, -16%
> CCn1c(=O)cc(SCC(=O)N2CCN(c3cc(C)ccc3C)CC2)c2ccccc21
 : 33%[activator], -13%
> Cc1ccccc1C(=O)N/N=C/C(C)C
 : 4%, 73%[activator]
> COc1ccccc1CNC(=O)CSc1nc2ccccc2c2nc(=O)c(-c3ccccc3)nn12
 : -9%, 28%
> Cc1cccc2cc(CN(c3ccccc3)S(C)(=O)=O)c(=O)[nH]c12
 : -7%, 25%
> CN1CCN(CCNC(=O)c2cnn(-c3ccc(F)cc3)c2C2CCN(C(=O)OC(C)(C)C)CC2)CC1
 : -9%, -15%
> CC1=C(C(=O)Nc2ccc(F)cc2F)C(c2ccc3c(c2)OCO3)C2=C(CC(C)(C)CC2=O)N1 (stereo not given)
 : 119%[activator], 7%
> CCCNC(=O)C1CCC(Cn2c(=O)c3sccc3n(CC(=O)Nc3ccccc3)c2=O)CC1 (stereo not given)
 : -9%, -7%
> COc1ccc(NC(=O)CSc2nc(-c3ccccc3)cc(-c3cc(OC)c(OC)c(OC)c3)c2C#N)c(OC)c1
 : -4%, -5%
> Cc1cc(-c2nc3ccccc3s2)ccc1NC(=O)c1ccc(C(C)C)cc1
 : 8%, 0%
> CCOc1ccccc1CNCc1c(C(=O)O)n(Cc2ccc(F)cc2)c2cc(C)ccc12
 : -13%, -13%
> Cc1c(C)n(Cc2ccc(F)cc2)c2ccc(C(=O)N3CCN(c4ccc(F)cc4)CC3)cc12
 : 25%, -12%
> C/C=C/Cn1c(SCCO)nc2c1c(=O)[nH]c(=O)n2C
 : -3%, 16%
> Cc1ccc(C=Nc2ccc(C(C)(C)C)cc2)s1
 : 0%, 116%[activator]
> Cc1cc2oc(C(=O)NCC(c3cccs3)N3CCCCCC3)cc(=O)c2cc1C (stereo not given)
 : 1%, 9%
> CCOc1ccc(C(=O)N(Cc2nc(-c3cccc(C)c3)no2)C(C)C)cc1
 : 2%, -11%
> Fc1ccc(-c2ccc(CNc3ncn[nH]3)o2)cc1Cl
 : 4%, 30%
> CC1(C)C2CCC1(C)C(NC(=O)Cc1ccccc1)C2 (stereo not given)
 : 24%, 22%
> CCOc1ccc(C(=O)N2CCN(CCc3ccccn3)CC2)cc1
 : -12%, -12%
> CC1CCN(S(=O)(=O)c2ccc(-c3nc(C#N)c(NCc4ccc5c(c4)OCO5)o3)cc2)CC1
 : 14%, -2%
> CC(Sc1nc2ccccc2o1)C(=O)C12CC3CC(CC(C3)C1)C2 (stereo not given)
 : 18%, 24%
> Cc1ccc(S(=O)(=O)/C(C#N)=C\c2ccc(F)cc2)cc1
 : 12%, 4%
> O=C(COc1ncnc2ccccc12)Nc1ccc(F)c(F)c1F
 : 7%, 1%
> Cc1ccc(C2C=C(c3ccc(Cl)cc3)Nc3nc(NC(=O)CCC(=O)O)nn32)cc1 (stereo not given)
 : -7%, -6%
> O=C(Nc1cc(F)ccc1F)c1cnn2c(C(F)F)cc(C3CC3)nc12
 : -12%, 3%
> CCCc1c(C(=O)OCC)[nH]c2c1C(=O)CC(c1ccc(OC)c(OC)c1)C2 (stereo not given)
 : 11%, 3%
> CCOC(=O)C1CCCN(C(=O)c2cc3c(Cl)nc4ccccc4c3s2)C1 (stereo not given)
 : -17%, 6.3µM*
> Cc1ccc(OCC(=O)N(Cc2ccco2)C2CCS(=O)(=O)C2)cc1 (stereo not given)
 : 5%, -2%
> Fc1ccc(-c2nnc(CN3CCN(c4ccccn4)CC3)o2)cc1
 : 7%, 1%
> CCC(=O)N1N=C(c2c(-c3ccccc3)c3cc(C)ccc3[nH]c2=O)CC1c1ccco1 (stereo not given)
 : ?, ?
> N#CCc1ccc(NC(=O)CNc2cccc(Cl)c2F)cc1
 : 62%[activator], 33%[activator]
> CCOC(=O)CSc1nc2sc3c(c2c(=O)n1-c1ccccc1)CC(C)(C)SC3
 : -1%, 9%
> COc1cc(-c2nc3cc(NC(C)=O)ccc3o2)cc(OC)c1OC
 : 103%[activator], 133%[activator]
> N#Cc1cc2c(nc1N1CCN(C(C(=O)O)c3c[nH]c4cc(F)ccc34)CC1)CCCC2 (stereo not given)
 : -15%, -13%
